Screens as filed in PubChem.
Autofluor counter: compound fluorescence in toxin protease inhibitor counterscreen | actives 3.1% (n = 360,000) | compound autofluorescence counterscreen, microsphere flow cytometry; active compounds read high | fluorescence intensity (no concentration beside the values) | AID 624483;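 active = at least 3 SD above the mean of all compounds, about 16000 in these data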;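 also: 100 nL of 1 mM stock went into each well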
BJeLR lethal: MLPCN primary cell-based screen for lethality selective to Ras in HRASV12 cells; BJeLR (HRASV12) viability, CellTiter-Glo ATP luminescence, 48 h; reference of the scale not given here; inhibition, % (no concentration beside the values); actives 0.17% (n = 300,000); AID 1554, 2009;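 active = replicate mean above 50%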;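 also: 50 nL library stock added to about 25 µL; numbers are from one replicate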
Sa RN4220 lethal: growth inhibition of S. aureus RN4220, primary screen, OD600; 16 h; inhibition, % (concentration not given with the values); actives 0.33% (n = 330,000); AID 1259311, 2017;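 active = z-score of -3 or lower and OD600 up to 0.18 on both plates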;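 also: plate controls were untreated cells for no effect and reference antibiotic for full effect; stock transfer was 100 nL into about 80 µL; one replicate is shown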
Mtb hypoxia rep: PubChem AID 1159583 | M. tuberculosis hypoxia-regulated fluorescent reporter, fluorescence | fluorescence inhibition, % (no concentration beside the values) | actives 0.1% (n = 300,000);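 active = 35 to 45% if threefold the growth effect, above 45% if 1.5-fold the growth effect; inactive = the rest, general growth blockers included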;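 also: wells of about 50 µL received 100 nL stock; 0% = vehicle wells and 100% = reference inhibitor wells; whole bacteria with a GFP reporter of the hypoxia response; strong numbers were not always called active; many hits fall short of the cut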
PrP UTR inh: inhibition of PrP 5' UTR reporter expression | cell-based PrP 5' UTR mRNA reporter, plate reader | inhibition, % (concentration not given with the values) | actives 0.35% (n = 340,000) | AID 488862, 2010;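 active = every replicate at 50% or more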;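 also: 0 = median of the neutral control wells; tested in H4 reporter cells; numbers are from one replicate; inactives centre near -14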
Sa ugtP lethal: growth inhibition of ugtP-null S. aureus, primary screen, RN4220 ugtP deletion, OD600 | actives 0.54% (n = 330,000) | growth inhibition, % (concentration not given with the values) | 16 h; some inactives read as strong as hits;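 active = z-score under -3 and OD600 up to 0.15 on both plates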;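 also: plate controls were untreated wells for no effect and antibiotic for full effect; wells of about 80 µL received 100 nL stock; the first replicate is given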
Mtb hypoxia rep growth: recorded beside Mtb hypoxia rep, whose call it bears; growth inhibition, %; measured here: M. tuberculosis growth (absorbance);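 0% = vehicle and 100% = reference antibiotic; read after six days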
* = called active by the depositor; . = no result given.

smiles,Autofluor counter,BJeLR lethal,Sa RN4220 lethal,Mtb hypoxia rep,Mtb hypoxia rep growth,PrP UTR inh,Sa ugtP lethal
O=C(N1CCOCC1)n1nnc2ccccc21,22842*,-3,2.7,8,16,-6,7
COc1cc(N2C(=O)NC3CC2(C)Oc2ccccc23)cc(OC)c1OC (stereo not given),2886,3,1.8,.,.,-13,1
CCOC(=O)N1CCN(S(=O)(=O)c2cc(Cl)c(OC)cc2Cl)CC1,3391,-9,-2.8,.,.,2,7
Cc1cccc(C(=O)C2CCOC(C)(C)C2)c1 (stereo not given),6012,12,3.2,8,2,-18,0
O=C(Nc1nnc(C2CCCCC2)s1)c1ccc(Br)s1,10815,10,7.7,-3,6,-39,-10
CCCCCCCCCCCC(=O)NC(C(=O)OCC)C(O)c1cccc([N+](=O)[O-])c1 (stereo not given),4615,-6,4.9,2,2,-6,-3
O=C(O)c1cc2n(n1)CCN(Cc1ccccc1Cl)C2=O,4163,0,3.3,4,9,-7,4
COc1cc(NC(=O)c2cc3c(Cl)nc4ccccc4c3s2)cc(OC)c1OC,9370,-17,.,.,.,-14,.
CC(=O)c1ccc(N2CCN(C(=O)c3nn(Cc4ccccc4)c(=O)c4ccccc34)CC2)cc1,4027,-5,7.7,10,8,-25,-4
CCOc1c(Br)cc(CNC2CCCCCCC2)cc1OC,5399,-2,-0.3,10,11,-14,-3
CCCCN(C(=O)C1CCCO1)c1c(N)n(CCC)c(=O)[nH]c1=O (stereo not given),3590,.,4.7,17,7,-20,-3
O=C(Cn1nnc(-c2ccc([N+](=O)[O-])cc2)n1)NNC(=O)c1ccccc1,5077,3,3.0,12,5,-20,3

smiles,Autofluor counter,BJeLR lethal,Sa RN4220 lethal,Mtb hypoxia rep,Mtb hypoxia rep growth,PrP UTR inh,Sa ugtP lethal
COC(=O)c1ccc(NC(=O)CS(=O)(=O)c2ccccc2)cc1,3894,3,2.2,-2,-2,-1,0
Cc1ccc(-n2c3c(cc(C(=O)NCc4ccco4)c2=O)C(=O)CCC3)cc1,2411,1,4.4,0,-1,-5,1
Cc1ccc(S(=O)(=O)Nc2c(C)nc3nc(C)[nH]n3c2=O)c(C)c1,3729,-1,4.0,9,7,-33,15
Cc1ccc(Nc2nc(C)cc(C)n2)c(Br)c1,9927,1,5.6,2,12,-26,-1
Cc1ccc(CNC(=O)CCS(=O)(=O)c2ccc(Br)s2)o1,10012,16,1.9,1,9,-22,2
CCN1CCN(C(=O)C2=C(C(=O)O)CCCC2)CC1,11357,-14,2.4,6,6,-11,3
C=CCOC(=O)C1=C(C)N=C2SCCC(=O)N2C1/C=C/c1ccccc1OC (stereo not given),3896,-6,11,15,8,-16,-4
NCCCCC(N)c1cn(C(CCC(=O)O)C(=O)N2CCNCC2)nn1 (stereo not given),.,.,-0.5,-5,4,.,-3
O=c1cnnc(NN=Cc2ccc3c(c2)OCO3)[nH]1,.,.,1.0,9,10,.,7
CCOc1ccc(NC(=O)CN(C)C(=O)c2c(-c3c(F)cccc3Cl)noc2C)cc1OCC,4792,-8,-1.4,-2,2,3,-2
CCOC(=O)c1c(NC(=O)c2ccccc2Br)sc2c1CCc1ccccc1-2,22027*,-11,-7.9,7,15,-23,38
CCOC(=O)CCCC(=O)N1CCOCCOCCN(C(=O)CCCC(=O)OCC)CCOCCOCC1,3367,-13,7.0,13,4,-19,0

smiles,Autofluor counter,BJeLR lethal,Sa RN4220 lethal,Mtb hypoxia rep,Mtb hypoxia rep growth,PrP UTR inh,Sa ugtP lethal
COc1cc(C(=O)OCC(C)=O)cc(NC(=O)c2ccco2)c1OC,3307,-5,8.3,13,3,-21,1
C[C@@H]1CC=C[C@H]2[C@H]1C(=O)N(Cc1ccccc1)[C@H]2c1ccc(/C=C/c2ccccc2)cc1F,4227,8,.,.,.,-20,.
CC(C)(C)NC(=O)c1cccc2c1C(=O)c1ccccc1-2,.,0,5.4,15,15,-23,2
CCCC(=O)NCCCc1nc2ccccc2n1C,5715,-9,-8.9,1,3,15,1
O=S(=O)(NCc1ccccc1)c1ccc(S(=O)(=O)N2CCCC2)cc1,4969,1,7.4,17,0,-2,-4
O=[N+]([O-])c1cccc(S(=O)(=O)Nc2nc3ccccc3nc2Nc2cccc(S(=O)(=O)N3CCCCC3)c2)c1,2618,23,-2.4,8,3,-16,17
C=C1CCN(C(C(=O)NCc2ccc(OC)cc2)C(C)C)S(=O)(=O)c2ccccc21 (stereo not given),.,.,3.3,2,4,.,12
OC(CN1CCNCC1)Cn1c2ccccc2c2ccccc21 (stereo not given),3845,1,-3.2,5,4,-4,-2
COc1ccc(NC(C)=O)cc1S(=O)(=O)NC(Cc1ccccc1)C(=O)O (stereo not given),4395,1,1.7,1,-1,-14,1
O=C(CO/N=C/c1cccc([N+](=O)[O-])c1)Nc1ccc2ccccc2c1,2727,-2,.,.,.,-24,.
Cc1cccc(NC(=S)NC(=O)Cc2ccccc2)c1C,2893,4,-3.3,-1,-4,3,29
NCCC1CCCC(CCN)N1 (stereo not given),6218,.,9.2,7,0,-24,-4

smiles,Autofluor counter,BJeLR lethal,Sa RN4220 lethal,Mtb hypoxia rep,Mtb hypoxia rep growth,PrP UTR inh,Sa ugtP lethal
O=C(COC(=O)c1cc(F)cc(F)c1)Nc1cccnc1Cl,3974,-6,0.9,-6,1,-41,2
CCSc1ccccc1C(=O)Nc1ccc(S(=O)(=O)NC(C)=O)cc1,4044,-2,5.8,6,-1,-15,-5
N#Cc1c(N)nc2c(c1-c1ccco1)CCCCC2,8458,20,4.9,-8,3,.,-1
Cn1nc(C(F)(F)F)c(C#N)c1N1CCN(c2cccc(C(F)(F)F)c2)CC1,2919,-2,-6.7,6,5,1,-6
CCN1C[C@@H]2[C@@H]3C(=O)N(C)C(=O)[C@@H]3[C@](C)(C(=O)OC)N2C1=NC,3841,.,0.9,-2,1,-9,3
Cc1ccc(/C(N)=N/OC(=O)N2c3ccccc3Sc3ccccc32)cc1,3427,-6,5.6,.,.,-36,-12
Cc1ccc(C(=O)NCCc2ccncc2)cc1,10747,2,4.1,3,3,-33,0
Cc1ccc2[nH]cc(C(=O)CN3CCOCC3)c2c1,15676,-3,0.9,-4,-8,-8,-4
CCOC(=O)c1nn(-c2ccc(Cl)cc2)c2nc(-c3ccc(C)cc3)c(C#N)c(=O)n12,2938,0,5.2,-7,-6,-8,-17
COc1ccc(C2=CC(c3ccc(F)cc3)n3nnnc3N2)cc1 (stereo not given),5973,7,2.3,10,11,-63,-13
CCn1ncc(C=NNC(=O)c2ccc3c(c2)c(C)c(C)n3Cc2ccccc2)c1C,.,.,3.7,11,9,.,-2
O=c1[nH]c2ccc(NS(=O)(=O)c3ccc(Cl)cc3)cc2[nH]1,2167,-25,7.4,13,0,-30,7

3 of the compounds above, with values under each structure.
The line under a structure holds: Autofluor counter | BJeLR lethal | Sa RN4220 lethal | Mtb hypoxia rep | Mtb hypoxia rep growth | PrP UTR inh | Sa ugtP lethal
- Cc1ccc(/C(N)=N/OC(=O)N2c3ccccc3Sc3ccccc32)cc1
    3427 | -6 | 5.6 | . | . | -36 | -12
- Cc1ccc(C(=O)NCCc2ccncc2)cc1
    10747 | 2 | 4.1 | 3 | 3 | -33 | 0
- Cc1ccc2[nH]cc(C(=O)CN3CCOCC3)c2c1
    15676 | -3 | 0.9 | -4 | -8 | -8 | -4

Remaining list, next part:
smiles,Autofluor counter,BJeLR lethal,Sa RN4220 lethal,Mtb hypoxia rep,Mtb hypoxia rep growth,PrP UTR inh,Sa ugtP lethal
CCCCN1CNC(=S)N(Cc2ccccc2)C1,7304,2,2.0,-9,-11,-9,-1
COc1cc(CN(CC(C)C)S(=O)(=O)c2ccccc2Br)cc(OC)c1,3741,.,-0.5,-10,-3,36,69
CC(C)(C)NCc1cc(Br)ccc1OCc1cccs1,2366,5,.,.,.,-2,.
COc1ccc(OC)c(S(=O)(=O)n2c([N+](=O)[O-])cnc2C)c1,.,-11,7.7,7,2,-2,9
CN(Cc1ccccc1)C(=O)c1ccc(NC(=O)Cc2ccc(NC(=O)C3CCN(C(=O)C4CCCC4)CC3)cc2)cc1,3752,.,7.3,-8,2,-20,4
Cc1cc(NC(=O)CSc2nnc(-c3ccco3)o2)no1,3121,-2,4.3,5,8,-4,4
O=C1c2ccccc2C(=O)N1CC(O)COc1ccc(Br)cc1 (stereo not given),4128,-4,2.1,0,-4,-28,4
CC(=O)Nc1ncc(Sc2ccc([N+](=O)[O-])cc2)s1,3457,.,2.1,9,8,-1,2
O=C(OCc1cc(=O)n2ccsc2n1)C1(c2ccc(Cl)cc2)CC1,6349,.,1.8,3,-2,0,6
CCc1ccc(CNC(=O)C2CCN(S(=O)(=O)N3CC(C)CC(C)C3)CC2)cc1 (stereo not given),5444,-5,.,.,.,-14,.
CCOc1ccc(NC(=O)Nc2ccc3c(c2)CCC3)cc1,5828,6,0.8,-6,11,-34,-8
C=CCN(c1ccccc1)S(=O)(=O)c1cccc(C(=O)Oc2ccc3c(C)cc(=O)oc3c2)c1,2236,-1,2.1,-11,-11,-20,2

smiles,Autofluor counter,BJeLR lethal,Sa RN4220 lethal,Mtb hypoxia rep,Mtb hypoxia rep growth,PrP UTR inh,Sa ugtP lethal
Cc1ccccc1C(=O)c1ccccc1C(=O)c1ccccc1,4024,.,5.2,10,8,-16,2
CC(C)C(=O)c1cc2c(cc1NC(=O)Nc1cccc3ccccc13)OCCO2,.,-10,4.3,10,2,.,17
O=C(Cn1cnc2sc(-c3ccccc3)cc2c1=O)NCCc1ccccc1,4551,6,.,.,.,-8,.
CCn1c(=S)sc2c(=O)n(CC(=O)Nc3ccc(OC)cc3)c(C)nc21,5574,4,-1.7,-8,9,1,-3
CCOc1ccc(NC(=O)CCCn2c(=S)[nH]c3ccsc3c2=O)cc1,4316,2,2.6,11,3,3,7
O=C(Nc1ccccc1)N1CCc2scc[n+]2-c2ccccc21,2503,19,-6.2,-3,-1,-8,15
CC(=O)c1cccc(NC(=S)N2c3ccccc3CC2C)c1 (stereo not given),4336,4,8.7,15,5,37,3
O=C(COc1ccc(C=NNC(=O)c2ccncc2)cc1)Nc1ccccc1,.,.,0.8,.,.,.,4
O=C(COc1ccc2ccccc2c1)Nc1ccccc1C(=O)O,5755,9,20,23,24,-36,14
C=CCN1C(=O)NC(=O)/C(=C/c2ccc(OC)c(COc3ccc(NC(C)=O)cc3)c2)C1=O,4647,22,-2.2,-3,13,2,-8
O=S(=O)(c1cccc(NC(=S)N2CCN(c3ccc(F)cc3)CC2)c1)C(F)F,2696,-1,5.5,-2,-2,-14,-8
CNC(=O)Oc1cccc(-c2cn3cc(Cl)ccc3n2)c1,2019,5,0.3,6,-3,-4,2

smiles,Autofluor counter,BJeLR lethal,Sa RN4220 lethal,Mtb hypoxia rep,Mtb hypoxia rep growth,PrP UTR inh,Sa ugtP lethal
COc1cccc(CNC(=O)CCS(=O)(=O)c2cccs2)c1,10136,-2,1.7,-2,4,-48,2
COc1cc(C(=O)Nc2ccc(C)cc2)c(-n2cnnn2)cc1OC,4065,2,9.3,7,6,-16,20
O=C(Cc1coc2ccc3ccccc3c12)NCc1ccccc1,20707*,1,12,9,-1,-12,-6
Cc1cc(C)c(S(=O)(=O)NCc2ccccn2)cc1C,.,-7,3.8,21,6,-15,2
O=C(CN1CCN(S(=O)(=O)c2ccc(Cl)cc2)CC1)Nc1ccc2c(c1)CCC2,7097,-12,8.9,-7,2,-3,-12
CCOC(=O)c1ccc(NC(=O)CN2CCN(c3ccccc3)CC2)cc1,3719,1,3.9,.,.,3,11
CC(=O)NCCc1nc2cc(NC(=O)COc3cccc(C)c3)ccc2n1C,3108,1,4.6,-3,8,-4,0
C=CCn1c(SCC(=O)Nc2cccnc2Cl)nnc1-c1ccccc1F,2048,1,2.6,6,4,-57,3
COc1ccc(CCn2c(=N)c(S(=O)(=O)c3ccccc3)cc3c(=O)n4ccccc4nc32)cc1,5759,2,7.6,-4,-5,5,2
COC(C(=O)NN=Cc1ccc(OCC(=O)N2CCOCC2)cc1)c1ccccc1 (stereo not given),.,.,5.1,1,4,.,6
CCOC(=O)N1CCN(CC(=O)c2ccc3c(c2)CCN3C(C)=O)CC1,5319,-7,3.0,-3,2,-31,3
CCOCCCNC(=O)C(Cc1ccccc1)NS(=O)(=O)c1ccc2c(c1)c(=O)n(C)c(=O)n2C (stereo not given),3172,3,4.6,1,-2,-10,15
CCOc1ccccc1N1CCN(c2nc3ccccc3nc2C(C#N)C(=O)OC(C)C)CC1 (stereo not given),3371,-7,7.5,1,0,-7,-5
